VACV Venus inh: qHTS for Stage-Specific Inhibitors of Vaccinia Orthopoxvirus: Venus Reporter Primary qHTS; 0.46% of 330,000 active; Vaccinia virus Venus reporter expression, fluorescence; AID 720580, 2013; Potency, µM (highest dose often 36.5 µM), inactives show top-dose activity change, negative = inhibition, usual class: inhibitors; active means well fitted inhibition curve with a large enough effect; inconclusive means small, poorly fitted or top-dose-only effect; inactive means no such curve, though single readings can be large or run the other way; tested in A549 cells; note: nearly all actives have a fitted effect of over 30% in size; inactives centre near -10
VACV mCherry inh: qHTS for Stage-Specific Inhibitors of Vaccinia Orthopoxvirus: mCherry Reporter Primary qHTS | Vaccinia virus mCherry reporter infection, fluorescence; about a quarter of the inactives have no number | Potency, µM (doses to about 36.5 µM), inactives show at the top dose activity change, negative = inhibition, usual class: inhibitors | 0.63% of 310,000 active | AID 720579, 2013; active = well fitted inhibition curve with a large enough effect; inconclusive = small, poorly fitted or top-dose-only effect; inactive = no such curve, though single readings can be large or run the other way; tested in A549 cells; note: nearly all actives have a fitted effect of over 35% in size; inactives centre near -10
The depositor's hits bear a star; i = inactive; ? = inconclusive; nt = not tested or not shown; [ ] = another dose, or the depositor's remark. % is set by controls: 0 for no effect and ±100 for the full control effect; potency is the fitted concentration of half-maximal effect.

SMILES	VACV Venus inh	VACV mCherry inh
O=C1CCCC(O)=C1N=Nc1c(Cl)cc(C(F)(F)F)cc1Cl	198.1%[activator]	232.3%[activator]
Cc1ccc(O)c(NC(=O)c2noc3c2CCc2ccccc2-3)c1	-2.7%	?
CC(OC(=O)CCCN=C1NS(=O)(=O)c2ccccc21)C(=O)Nc1ccccc1F (stereo not drawn)	-7.1%	-10.2%
Cc1ccc(O)c(C(=O)c2cc(C#N)c(=O)n(Cc3ccccc3)c2)c1	7.4%	-1.1%
O=C1NC2c3ccccc3C(=O)N2c2c1cnn2-c1ccccc1 (stereo not drawn)	-29.0%	?
CC1(C(=O)NS(=O)(=O)C2CC2)CCCN(C(=O)/C=C/c2ccccc2)C1 (stereo not drawn)	3.2%	i
COc1cc(C=Nc2cccc(C)c2)c(O)c([N+](=O)[O-])c1	-5.7%	-21.1%
O=C1CN(O)C(c2ccccc2)=c2cc(Br)ccc2=N1	-9.1%	i
Cc1ccc(-c2csc(-c3c(N)c(C(=O)c4ccc5c(c4)OCO5)n4ccccc34)n2)cc1C	-6.5%	-7.5%
CC[C@H](C)/C=C(C)/C=C/C1=CC2=CC(=O)[C@]3(C)OC(=O)[C@@H](C(C)=O)[C@@H]3C2=CO1	8.2%	-9.7%
CCOc1ccccc1NC(=S)NC(=O)C1CC1	-23.0%	-14.6%
CCCSC1=C(C#N)C(c2cc(OC)ccc2OC)CC(=O)N1 (stereo not drawn)	-14.2%	-10.6%
COCc1cc(C)nc(SCC(=O)Nc2ccc(C)c(C)c2)c1C#N	-13.6%	-26.6%
O=C(Nc1ccccc1)C1Cc2ccccc2CN1C(=O)c1ccco1 (stereo not drawn)	-10.3%	i
CN1CCCC(C)(C(=O)Nc2cccc(Oc3ccccc3)c2)C1 (stereo not drawn)	-21.6%	i
C[C@H]1COc2cccc(N3CCN(C)CC3)c2S(=O)(=O)N1	-3.0%	3.5%
Cc1cc(C(=O)N2CCN(S(=O)(=O)c3ccc(C)c(C)c3)CC2)no1	-11.7%	-22.1%
COc1ccc(CCC(=O)Nc2ccc(C(=O)c3ccncc3)cc2)cc1	-8.2%	i
NC(N)=NS(=O)(=O)c1ccc(NC(=S)NC(=O)c2ccncc2)cc1	1.8%	-7.4%
C=CCn1c(SCC(=O)NCC2CCCO2)nc2scc(-c3ccccc3)c2c1=O (stereo not drawn)	-9.9%	-11.4%
CCCC(=O)NC(c1ccc(C(C)C)cc1)c1ccc2cccnc2c1O (stereo not drawn)	-28.8%	?
CC(C)Oc1ccc(S(=O)(=O)N2CCOCC2)cc1NC(=O)Cc1c(F)cccc1Cl	-12.9%	i
N#CC1=C(SCC(=O)NC23CC4CC(CC(C4)C2)C3)NC(=O)C(C#N)C12CCCCC2 (stereo not drawn)	12.6µM*	10µM*
CC(C)C[C@@]12C(=O)N(c3cccc(Cl)c3)C(=O)N1[C@H](c1ccc(F)cc1)[C@@H]1C(=O)N(C3CCCCC3)C(=O)[C@@H]12	-20.4%	-22.3%
CCOc1ccc(OCc2ccc(C(=O)N(CC)CC)cc2)cc1	-26.2%	-14.1%
COc1cc(NC(=O)CCS(=O)(=O)c2ccc(Br)cc2)cc(OC)c1	-3.9%	-11.3%
CCOP(=O)(OCC)C(NC(=O)CC(C)C)C(Cl)(Cl)Cl (stereo not drawn)	-0.3%	-2.9%
CC1(C)Cc2c(sc(NC(=O)C3CC(Cl)=CCC3C(=O)O)c2C#N)CO1 (stereo not drawn)	-3.0%	-13.5%
Cn1c(C(=O)N2CCOCC2)cc2c(=O)n3ccccc3nc21	-10.2%	i
CNc1cccc2c1C(=O)c1ccccc1C2=O	42.3%[activator]	7.3%
COc1ccc(-c2nc(CSc3nnc(C)n4c3cc3occc34)c(C)o2)cc1OC	-22.7%	-17.0%
CC(C)(C)NC(=O)Cn1ccc(=N)c2ccccc21	-18.9%	-22.0%[1.46 µM]
C[C@@]12CCC=C[C@H]1[C@H](c1ccc3ccccc3c1)N(Cc1ccccc1)C2=O	-16.6%	-1.3%
COc1ccc(CN2CCN(C(=O)c3cccs3)CC2)c(OC)c1OC	8.8%	-1.9%
CC(C)N(Cc1nc(-c2ccc(Cl)cc2)no1)C(=O)c1ccco1	2.3%	-10.5%
Cc1ccc(C)c(N2CCN(c3nc4ccc(C)cc4nc3-n3nc(C)cc3C)CC2)c1	-8.5%	-8.0%
CC(=O)C1=C(O)C(=O)N(c2ccccn2)C1c1ccc(Cl)cc1 (stereo not drawn)	-2.8%	-24.3%
CC(OC(=O)CNC(=O)c1ccco1)C(=O)Nc1ccc(Cl)cn1 (stereo not drawn)	-20.0%	-2.0%
O=C(NCCS(=O)(=O)N1CCN(c2ccc(F)cc2)CC1)c1cccc(C(F)(F)F)c1	-17.9%	-18.3%
O=C(O)c1nn2c(C(F)(F)F)cc(-c3cccs3)nc2c1Cl	3.0%	-9.8%
Cc1cccc(-n2c(CCCN3C(=O)c4ccccc4C3=O)nc3ccccc3c2=O)n1	-5.4%	nt
C#C[C@]1(O)CCC2C3C(=O)C=C4C=CCC[C@]4(C)C3CC[C@@]21C (stereo partly drawn)	-11.0%	-20.2%
Cc1nc2ccccc2nc1N1CCC(C)CC1	-2.7%	-2.6%
COc1cccc(-c2noc(COc3ccc(C(C)(C)C)cc3)n2)c1	-5.4%	-8.9%
CCC1CN1P(=O)(Oc1ccc(Cl)cc1)N1CC1CC (stereo not drawn)	-5.7%	-0.7%
COc1cccc(CC(NC(C)=O)C(=O)NC2CCN(C(=O)c3ccc(Cl)cc3)CC2)c1 (stereo not drawn)	-2.7%	-10.2%
COc1ccc(C=O)cc1COc1ccc(F)cc1F	-3.0%	-4.6%
CCOC(=O)C1=C(CSc2nc3ccccc3s2)NC(=O)NC1c1cccc([N+](=O)[O-])c1 (stereo not drawn)	?	-28.9%
CC(C)[C@H](NC(=O)c1cccc(S(=O)(=O)N2CCOCC2)c1)C(=O)Nc1nccs1	0.8%	-1.2%
CCOC(=O)CSC(CC)C(=O)Nc1nnc(C(C)C)s1 (stereo not drawn)	2.5%	22.1%

4 entries picked at random from the list so far, as already listed:
SMILES	VACV Venus inh	VACV mCherry inh
Cc1cccc(-n2c(CCCN3C(=O)c4ccccc4C3=O)nc3ccccc3c2=O)n1	-5.4%	nt
CC1(C)Cc2c(sc(NC(=O)C3CC(Cl)=CCC3C(=O)O)c2C#N)CO1 (stereo not drawn)	-3.0%	-13.5%
CCCC(=O)NC(c1ccc(C(C)C)cc1)c1ccc2cccnc2c1O (stereo not drawn)	-28.8%	?
Cc1ccc(-c2csc(-c3c(N)c(C(=O)c4ccc5c(c4)OCO5)n4ccccc34)n2)cc1C	-6.5%	-7.5%

Carrying on:
SMILES	VACV Venus inh	VACV mCherry inh
CC(C)CCN1CN(S(=O)(=O)c2cccs2)c2nc3ccccc3nc21	-7.8%	nt
CCN(Cc1ccccc1)C(=O)CSc1nc(C)cc2c1C(=O)OC2	-6.9%	-13.7%
Cc1ccc(NC(=O)NCCN2CCN(C(=O)Nc3ccc(C)cc3)CC2)cc1	-0.9%	-13.2%
CCOc1ccc(N2CC(c3nc4ccccc4n3CCOc3ccc(CC)cc3)CC2=O)cc1 (stereo not drawn)	?	-27.7%
O=C(c1ccco1)N1CCN(C(=O)c2ccccc2OCc2ccc(Cl)cc2)CC1	-17.6%	-25.0%
COc1ccc(O)c(C(=O)c2cc(SCC(=O)O)c3nc4sc5c(c4c(=O)n3c2)CCCC5)c1	2.0%	-25.8%
Nc1[nH]ncc1-c1ccc(Cl)cc1	?	?
Cc1ccc(S(=O)(=O)N2CCCC2C(=O)Nc2nc3c(s2)CCCC3)cc1 (stereo not drawn)	?	-28.7%
O=C(NCC(=O)N1CCN(S(=O)(=O)c2ccccc2F)CC1)c1ccc2ccccc2c1	-1.5%	-13.4%
Cc1ccc(OCC(=O)NCCNC(=O)c2ccco2)cc1C	2.7%	-8.0%
CCc1nn2c(=O)cc(COC(=O)c3ccc(NC(=O)C4CCCCC4)cc3)nc2s1	-16.6%	i
Cc1ccccc1OCC(=O)Nc1ccccc1C(=O)N1CCCCC1	-14.1%	-13.1%
CCOc1ccc(OCC)c(NC(=O)CSc2nc3c(c(=O)n(C)c(=O)n3C)n2C(C)C)c1	-20.1%	-24.5%
CCOC(=O)c1cc(-c2ccccc2)n(CCCC(=O)Nc2ccc(C)c(C)c2)c1C	?	?
CN(CCC(=O)Nc1ccc(Br)cc1)Cc1ccccc1	-26.6%	?
FC(F)(F)c1cc(-c2cccc(Br)c2)nc2ncnn12	-7.2%	-17.9%
c1ccc(-c2nnc(-c3ccccn3)nc2NC2CCCCC2)cc1	?	3.55µM*
Cc1ccc(NC(=S)N2CCCC(O)C2)cc1 (stereo not drawn)	-15.6%	i
CC(=O)Nc1cc2c(cc1C(=O)c1ccccc1)OCCO2	-14.0%	nt
Cc1nc(S(=O)(=O)Cc2ccccc2)nc2c1CCC2	-7.6%	i
CC(C)C(NC(=O)c1ccoc1)c1nnc2n1CCN(C(=O)/C=C/c1ccc(F)cc1)CC2 (stereo not drawn)	-14.7%	-15.0%
Cc1nnc(SCC2=C(C(=O)O)N3C(=O)C(NC(=O)Cn4ncc(Cl)c4C)C3SC2)s1 (stereo not drawn)	-8.0%	i
Cc1ccc(OCCC(=O)OCC(=O)NNC(=O)c2ccccc2)cc1	-8.1%	i
CCCCCCCCCCCCCC(=O)O	-9.9%	i
CCCSc1nnc(NC(=O)Nc2ccc(F)cc2)s1	7.94µM*	nt
NC(=S)N=Nc1ccc(NN=C(N)N)cc1	9.4%	4.9%
Cn1nccc1NC(=O)COCC(=O)O	-10.0%[7.34 µM]	-1.5%[7.34 µM]
COc1ccc(-c2nc3ccccc3s2)cc1NC(=O)c1cccc([N+](=O)[O-])c1C	-14.5%	-16.3%
COCCNC(=S)NCc1ccc2[nH]c3c(c2c1)CCCC3	7.4%	i
CC(C)NC(=O)CSc1nc2sccc2c(=O)n1-c1ccccc1	-9.8%	3.8%
COc1cccc(CN2C(=O)c3ccccc3Sc3ccc(C(=O)N(C)Cc4ccccc4)cc32)c1	-2.1%	-9.2%
CC1=C(C(=O)N(C(C)C)C(C)C)CC(CC(=O)NC2CC2)C(=O)N1Cc1ccccc1 (stereo not drawn)	5.1%	i
Cc1cccc(C)c1OCc1n[nH]c(=S)o1	-0.1%	-9.3%
Nc1ccn(-c2ncc(C(F)(F)F)cc2Cl)c(=O)n1	0.2%	-3.7%
O=C(NNc1ncnc2c1cnn2-c1ccccc1)c1cccc(Cl)c1	-11.8%	-20.3%
CCn1nc([N+](=O)[O-])c(C(C#N)c2nc3ccccc3n2C)c(Cl)c1=O (stereo not drawn)	-3.1%	-22.4%
O=C(N/N=C/c1cc([N+](=O)[O-])ccc1O)c1ccc2c(c1)OCCO2	-10.8%	-22.0%
CCOc1ccc(N2CC(C(=O)NCCc3ccc(F)cc3)CC2=O)cc1 (stereo not drawn)	-5.6%	-8.5%
Cc1ccc(C)c(NC(=O)CN(C)C(=O)COc2ncnc3sccc23)c1	-2.0%	-13.8%
Cn1nnnc1SCC(=O)Nc1ccc2c(c1)OCCO2	-7.4%	i
O=C(Nc1csc(Cl)c1)c1ccccc1	-11.5%	i
COC(=O)C1=C(Nc2ccccc2NS(=O)(=O)c2ccc(C(F)(F)F)cc2Cl)CSC1	-4.9%	-13.4%
COc1ccc(C(=O)c2ccc([N+](=O)[O-])cc2)c(OC)c1OC	-5.9%	-17.0%
CCOC(=O)N1CCN(CC(=O)Nc2ccc(OC)cc2)CC1	-13.5%	-13.6%
Cc1ccc(S(=O)(=O)N2CCCCC2)cc1NC(=O)c1cc(F)c(F)c(F)c1F	-9.6%	-14.8%
O=C(CCc1nc2ccccc2c(=O)[nH]1)Nc1cccc(S(=O)(=O)N2CCOCC2)c1	1.1%	-12.4%
O=C(/C=C/c1ccccc1Cl)N(Cc1ccccc1)C1CCS(=O)(=O)C1 (stereo not drawn)	-25.6%	-14.6%
Cc1cccn2c(=O)nc(SCC(=O)N3N=C(c4cccs4)CC3c3ccc(F)cc3)nc12 (stereo not drawn)	-26.7%	-0.8%
Cc1cccc(NC(=O)c2ccc3nccnc3c2)n1	-17.3%	i
CC(C)N(C(=O)[C@H]1C[C@H](CC(=O)NCCN2CCOCC2)C(=O)N2CCc3c([nH]c4cc(CCC(=O)N(C)C)ccc34)[C@]12C)C(C)C	-10.2%	i

Single records, from the list above:
Profile of `COc1ccc(C=O)cc1COc1ccc(F)cc1F` → VACV Venus inh = -3.0%; VACV mCherry inh = -4.6%
Profile of `Cc1ccc(OCCC(=O)OCC(=O)NNC(=O)c2ccccc2)cc1` → VACV Venus inh = -8.1%; VACV mCherry inh = i

Continuation:
SMILES	VACV Venus inh	VACV mCherry inh
CN(C(=O)c1ccncc1)c1ccccc1	2.0%	i
COc1ccc(Br)cc1CN(C)C(=O)c1ccccc1OCc1c(C)noc1C	-10.6%	-13.9%
COCc1cccc(C(=O)NC(c2ccccc2)c2ccccc2)c1	2.3%	9.1%
O=C(CSc1ccc(Cl)cc1)NC1=NN(c2ccccc2)C(=O)C1	-18.2%	-25.7%
O=C(NCc1cccnc1)c1cccc(S(=O)(=O)N2CCCC2)c1	-7.7%	-7.9%
Cc1cccc(C(=O)N[C@H](C(=O)OCc2cc(=O)n3c(n2)sc2ccccc23)C(C)C)c1	-13.1%	-14.0%
COc1ccccc1-c1cc(=O)c2cccc(OC)c2o1	-5.4%	-14.3%
CN(C)CCCN(C(=O)c1ccc2c(c1)OCCO2)c1nc2cc3c(cc2s1)OCO3	-19.9%	?
O=C1NC(=S)SC1=Cc1ccccc1Br	5.5%	?

From PubChem BioAssay

Random draw from the library; 0.86% or so of the library scored in one or more.
